Bioassay records as filed in PubChem.
Rango complex inh: qHTS Assay for Inhibitors of Rango (Ran-regulated importin-beta cargo) - Importin beta complex formation; hit rate 0.031% among 340,000; Importin subunit beta-1 (Homo sapiens), Q14974; Rango CFP/YFP FRET sensor + importin beta, 45 min; Potency, µM (series often up to 92.2 µM), without a hit: top-dose inhibition of complex formation; active = rising FRET ratio curve, often small or poorly fitted; inconclusive = mostly compound fluorescence or quenching in the first reads; inactive = flat curves in all reads;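 note: potency is the fitted concentration of half-maximal effect; 0% = DMSO wells and 100% = buffer wells lacking importin beta; nearly all actives have a fitted effect of over 15% in size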
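FRET biosensor Rango (snurportin 1 IBB between N-terminal EYFP and C-terminal Cerulean), 50 nM in PBS/1 mM DTT/0.02% Tween-20/0.1% BSA, preincubated 5 min RT with compound; 0.125 microM importin beta added, 45 min RT, CFP/YFP FRET ratio read.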
GLA inh pH 4.5: qHTS Assay for Inhibitors of Human alpha-Galactosidase at pH 4.5. AID 1467, 2008. Alpha-galactosidase A (Homo sapiens), P06280. activity change, negative = inhibition, % at 105 µM. 230,000 tested, under 10 active. purified enzyme, 4-MU-alpha-Gal fluorescence, pH 4.5; inconclusive = small, poorly fitted or top-dose-only inhibition, or a rising curve; inactive = flat fitted curve, though single readings scatter; no compound was filed as active;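 note: 0% = full activity with enzyme and -100% = basal without enzyme; dose as in the result columns while the protocol names 77 µM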
Target sequence (P06280 whole entry, looked up): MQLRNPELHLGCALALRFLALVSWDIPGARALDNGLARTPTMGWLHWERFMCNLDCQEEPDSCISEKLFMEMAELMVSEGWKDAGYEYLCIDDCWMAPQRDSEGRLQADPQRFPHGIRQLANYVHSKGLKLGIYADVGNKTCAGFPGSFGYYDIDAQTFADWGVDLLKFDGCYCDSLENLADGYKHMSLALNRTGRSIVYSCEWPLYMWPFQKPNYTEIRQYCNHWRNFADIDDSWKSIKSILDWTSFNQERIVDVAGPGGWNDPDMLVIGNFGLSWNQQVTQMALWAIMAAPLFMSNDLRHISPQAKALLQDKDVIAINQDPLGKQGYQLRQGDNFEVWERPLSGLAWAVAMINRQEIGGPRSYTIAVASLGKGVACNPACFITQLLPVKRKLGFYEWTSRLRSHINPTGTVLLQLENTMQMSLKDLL
miR-21 reporter: qHTS Assay for Modulators of miRNAs and/orActivators of miR-21. AID 2288, 2010. HeLa miR-21 FLuc reporter, luciferase, 48 h. 340,000 tested, under 10 active. Potency, µM (series often up to 38.3 µM), for the others: top-dose reporter change, positive = more light; active = well fitted rising curve with a large enough effect; inconclusive = small, poorly fitted or top-dose-only effect; inactive = no such curve, though single readings can be large or run the other way;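 note: % of control where 0% means no effect; miR-21 action dims this reporter so a rising signal means less miR-21 action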
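HeLa cells stably expressing CMV-driven firefly luciferase with a downstream miR-21 binding sequence, endogenously expressing miR-21, were treated with titrations (up to about 40uM final) for 48 hours at 37 degree Celsius. Luciferase luminescence was read after lysis.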
Rango dissoc inh: qHTS Assay for Inhibitors of RanGTP induced Rango (Ran-regulated importin-beta cargo) - Importin beta complex dissociation; Snurportin-1 (Homo sapiens) + GTP-binding nuclear protein Ran (Homo sapiens) + Importin …; Potency, µM (titrated, usually from 46.1 µM), without a hit: at the highest dose activity change, negative = inhibition; Biochemical FRET Rango-importin beta, RanGTP-induced dissociation; hit rate 0.071% among 340,000; active means falling FRET ratio curve, often poorly fitted, with flat reads before Ran was added; inconclusive means other falling curves, or compound fluorescence or quenching; inactive means flat or rising ratio curve;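 note: potency is the fitted concentration of half-maximal effect; % of control where 0% means no effect; nearly all actives have a fitted effect of over 45% in size; -100% = wells without RanGTP and RCC1; the record marks most hits as doubtful in a second field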
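Rango FRET biosensor (snurportin-1 IBB flanked by N-terminal EYFP and C-terminal CFP10) at 0.1 uM, with 0.25 uM importin beta in PBS, 1mM DTT, 0.02% Tween-20, 0.1% BSA. 0.6 uM Ran, 2mM GTP and 0.2 uM RCC1 were then added for 45 min at room temperature. Inhibition read as loss of FRET rise.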
Starred values were filed as active, the others as inactive; u = inconclusive; x = no result given. Some of the compounds tested, so the mix of outcomes need not match the whole.

Each structure is followed by: Rango complex inh, GLA inh pH 4.5, miR-21 reporter, Rango dissoc inh
1: CC(c1ccccc1)N1CCc2[nH]c(=S)[nH]c(=O)c2C1 (stereo not given)
  -0.3%, 2, 0%, -18%
2: CCOc1ccc(C(=O)Nc2nnn(CC)n2)cc1
  6.1%, 4, -17%, 35%
3: Cc1noc(/C=C/N(C)C)c1S(=O)(=O)N(C)CC(=O)NC1CCCCC1
  u, -10, -13%, u
4: c1ccc2oc(-c3ccc(Nc4nc(N5CCCCC5)nc(N5CCOCC5)n4)cc3)nc2c1
  x, 1, 1%, x
5: CCOC(=O)COc1nc(Nc2ccccc2C)nc(N(C)C)n1
  -3.3%, 7, -13%, -10%
6: O=S(=O)(c1cccs1)N1CCN(CCOc2ccccc2)CC1
  -0.1%, x, x, 24%
7: CC(NC(=O)CN1C(=O)NC2(CCCCCCC2)C1=O)c1ccccc1 (stereo not given)
  -0.1%, x, x, -1%
8: CCOC(=O)C1=C(C)NC(=O)CC1c1cc2c(cc1[N+](=O)[O-])OCO2 (stereo not given)
  0.2%, 3, 0%, -10%
9: COc1ccc(C)cc1NC(=O)c1ccc(CN2CCN(c3ccccc3)CC2)cc1
  -0.9%, -16, 23%, -3%
10: CC(C)(C)N(Cc1ccccc1)C(=O)COC(=O)CN1C(=O)C2CC=CCC2C1=O (stereo not given)
  3.8%, x, -2%, 23%
11: COC(=O)c1ccc(COc2ccc(/C=N/N3CCN(C)CC3)cc2)cc1
  2.9%, 8, -37%, 2%
12: CCN1C(=O)C(C(=O)Nc2ccc(OC)cc2)C2CC1(C)Oc1ccccc12 (stereo not given)
  -1.5%, -2, -28%, -6%
13: Cc1ccc(CNC(=O)c2cccc(OCc3c(C)noc3C)c2)cc1
  -2.7%, 4, -1%, 15%
14: CC1CCN(c2ccccc2NC(=S)NC(=O)c2cccs2)CC1
  4.0%, -4, -6%, -10%
15: Cc1cc(C)cc(NC(=O)N2CCN(Cc3ccc4c(c3)OCO4)CC2)c1
  0.5%, -5, -5%, 11%
16: COc1ccc(N2CC(C(=O)N3CCN(c4ccccc4OC)CC3)CC2=O)cc1 (stereo not given)
  -1.2%, x, -1%, -13%
17: CCOC(=O)CN1CC23C=CC(O2)C(C(=O)Nc2cc(OC)ccc2OC)C3C1=O (stereo not given)
  1.7%, 11, -4%, -12%
18: O=C(NCC(c1ccco1)N1CCCCC1)c1cc2c(s1)CCCC2 (stereo not given)
  -1.8%, x, x, -1%
19: CCc1nc(SCC(=O)c2ccc3c(c2)OCCO3)c2ccccc2n1
  u, 1, -9%, u
20: COc1cc2c(c(OC)c1OC)-c1ccc(OC)c(=O)cc1C(NC(C)=O)CC2 (stereo not given)
  2.0%, 2, 22%, 16%
21: CCNS(=O)(=O)c1ccc(OC)c(C)c1
  5.7%, -9, -8%, 1%
22: CCN(Cc1ccncc1)C(=O)c1ccc(C)o1
  -0.4%, x, -4%, -1%
23: Cc1ccc2occ(C3N[C@H](C(=O)O)CS3)c(=O)c2c1 (stereo not given in full)
  u, -5, -15%, u
24: Cc1ccc([N+](=O)[O-])cc1S(=O)(=O)Nc1ccc(-c2ccc(N3CCOCC3)nn2)cc1
  0.1%, x, x, 9%
25: O=C(O)C1CCCCN1S(=O)(=O)c1ccc2ccccc2c1 (stereo not given)
  0.5%, 6, -5%, 10%
26: c1ccc(OCCN2CCN(C(c3ccccc3)c3ccccc3)CC2)cc1
  0.4%, x, -1%, 2%
27: O=C(CSC1CN(C(c2ccccc2)c2ccccc2)C1)N/N=C/c1ccccc1
  -1.1%, -21, 0%, -8%
28: CC1CCCN(c2ccc(C(=O)NCc3ccccc3)cn2)C1 (stereo not given)
  2.4%, -4, -41%, -10%
29: COc1ccc(CNC(=O)CNC(C)c2ccc(F)cc2)cc1 (stereo not given)
  0.5%, x, -4%, -8%
30: COc1cccc(OC)c1OCCCCCc1c(C)n[nH]c1C
  -0.6%, 1, 3%, 4%
31: O=C(c1cccc(Cl)c1)N1CCN(c2ccc(N3CCOCC3)nn2)CC1
  -3.4%, x, x, -19%
32: CC1=Nc2ccccc2/C1=C\c1sc(Nc2ccc(C)cc2)nc1O
  u, 0, 15%, u
33: CC(C)(CNC(=O)c1ccc(NS(=O)(=O)c2ccc(Br)cc2)cc1)N1CCOCC1
  -1.1%, x, x, -18%
34: Cc1c(C(=O)OCC(=O)N2CCN(c3ccccc3)CC2)oc2ccccc12
  -0.2%, x, x, -2%
35: Cc1ccc(/C=N/NC(=O)CSCc2ccc(Cl)cc2)cc1
  2.2%, -10, -6%, -16%
36: CCN1C(=O)C2(C(C#N)=C(N)Oc3n[nH]c(-c4ccc(Cl)cc4)c32)c2ccccc21 (stereo not given)
  -4.8%, 5, -4%, 2%
37: NS(=O)(=O)c1ccc(NC(=O)CN2CCc3ccccc32)cc1
  -0.5%, -11, -3%, 0%
38: CCOC(=O)C1=C(N)OC2=C(C(=O)CCC2)C1c1ccc(C)s1 (stereo not given)
  -0.9%, 1, -7%, -5%
39: O=C(CN1C(=O)c2ccccc2S1(=O)=O)NCc1ccc2c(c1)OCO2
  -4.7%, 1, -2%, 0%
40: O=C1c2ccccc2C(=O)N1CSc1ncccn1
  6.8%, 8, -10%, 17%
41: c1ccc(-c2nc(NCc3ccco3)c3ccccc3n2)cc1
  3.5%, -18, -19%, 6%
42: CCOc1cc(C(=S)N2CCOCC2)ccc1OS(=O)(=O)c1ccc(Br)cc1
  2.1%, x, 5%, 11%
43: CCOc1cc(/C=N/NC(=O)C2CC2)ccc1OC(C)C
  -1.4%, x, -5%, 1%
44: CC(C)S(=O)(=O)c1csc(C(=O)NN)c1-n1cccc1
  -2.9%, -1, -3%, 1%
45: NS(=O)(=O)c1cccc(NC(=O)C(Cc2ccccc2)NC(=O)c2ccccc2)c1 (stereo not given)
  -3.4%, x, -7%, 0%
46: CC[N+](C)(C)CC/C=C1/c2ccccc2Sc2ccc(Cl)cc21
  -0.5%, 0, 12%, 0%
47: COc1ccccc1NC(=O)N1CCCC1C(=O)NC12CC3CC(CC(C3)C1)C2 (stereo not given)
  0.4%, 4, -1%, -4%
48: Cc1nn2c(-c3cccc(NC(=O)c4ccco4)c3)nnc2c2ccccc12
  -0.2%, 3, -13%, -11%
49: CC(C)NS(=O)(=O)c1ccc(NCCCn2ccnc2)c([N+](=O)[O-])c1
  -1.0%, x, 8%, 0%
50: N#Cc1cnc(SCC(=O)N2CCCCC2)nc1N
  2.2%, x, x, 2%
51: Cc1cccc(NC(=O)C2CCCCN2S(=O)(=O)c2ccccc2)c1C (stereo not given)
  0.4%, x, x, -3%
52: CC(C)(C)OC(=O)N1CCC(C(=O)Nc2ccc(C(=O)NC3CC3)cc2)CC1
  -0.3%, x, x, 5%
53: O=C(CCSc1ccccc1)OCn1nnc2ccccc2c1=O
  -0.5%, 9, -23%, -1%
54: CCc1ccc(C(=O)NNC(=O)CN2C(=O)NC(CC)(c3ccccc3)C2=O)cc1 (stereo not given)
  1.5%, x, x, 0%
55: CCOc1ccc(CCNC(=O)c2ccc(=O)[nH]c2)cc1OCC
  0.2%, x, 0%, -4%
56: COc1cc(NC(=O)c2cccnc2)c(OC)cc1NC(=O)c1ccc(Br)cc1
  u, x, -7%, u
57: CCOC(=O)c1ccc2[nH]c(C)c(C)c2c1
  u, x, x, -7%
58: CCOc1ccc(C(=O)NCC2(c3ccccc3)CCOCC2)cc1
  7.0%, x, -11%, -5%
59: Cc1ccc(NCc2nnc(SCC(=O)N3c4ccccc4Sc4ccccc43)o2)c(C)c1
  -6.4%, -22, -2%, 4%
60: CCCc1cc(=O)[nH]c(SCC(=O)c2c[nH]c3ccccc23)n1
  -2.2%, -7, 5%, -19%

New compounds follow:
Each structure is followed by: Rango complex inh, GLA inh pH 4.5, miR-21 reporter, Rango dissoc inh
61: COC(=O)C1=C(C)N(C(C)c2ccccc2)C(=O)C1 (stereo not given)
  -1.4%, 3, -1%, 20%
62: CCc1cccc(NC(=O)CSc2nnc(Cc3ccc(OC)cc3)c(=O)[nH]2)c1
  0.1%, x, x, 0%
63: CN1CCN(S(=O)(=O)c2ccc(CNC(=O)c3ccccc3)s2)CC1
  1.5%, x, 0%, 11%
64: CC(NC(=O)C1CCC(C)(C(=O)O)C1(C)C)c1ccccc1 (stereo not given)
  -0.1%, x, 1%, 10%
65: Cc1ccc2[nH]c3c(NCc4ccccc4)ncnc3c2c1
  -3.8%, x, 3%, -8%
66: COc1cc(NC(=S)NC(=O)c2c(OC)cccc2OC)ccc1NC(=O)c1cccs1
  -2.6%, -6, 16%, 0%
67: NC(=O)CC(NC(=O)Cc1ccc(Br)cc1)c1ccc(NCc2cc(F)ccc2F)c([N+](=O)[O-])c1 (stereo not given)
  -0.6%, -25, -3%, -9%
68: Cc1cccc(C)c1NC(=O)/C(=C/c1ccco1)c1ccccc1
  -0.3%, 4, 2%, 2%
69: Cc1ccc(CN2CCN(/N=C/c3ccc(Cl)c([N+](=O)[O-])c3)CC2)cc1
  2.7%, -6, 7%, -8%
70: Cc1cccc(Nc2nc(N)nc(CSc3nccc(C)n3)n2)c1
  5.4%, -3, -36%, -7%
71: Cc1cc(NC(=O)CCC(=O)N(Cc2cccnc2)C(C(=O)NC(C)(C)C)c2ccccc2Cl)no1 (stereo not given)
  -3.7%, x, 1%, 3%
72: COC(=O)c1oc(-c2ccc(Cl)cc2)nc1C
  -3.8%, 3, -12%, 30%
73: O=C(c1ccc(COc2ccccc2Br)o1)N1CCCCCC1
  5.4%, -5, -24%, -2%
74: COc1ccc(-c2ccc(/C=C3\C(=O)N(c4ccccc4)N=C3c3ccccc3)o2)c([N+](=O)[O-])c1
  2.6%, 1, -4%, 22%
75: O=C(CSc1nc(-c2ccccc2)cs1)N1CCc2ccccc21
  -3.3%, u, -17%, -6%
76: CCN(CC(=O)Nc1ccccc1OC)C(=O)COc1ccc(C#N)cc1
  2.8%, x, x, 1%
77: CSc1ncccc1C(=O)N1CCCC(CCC(=O)NCc2ccc(F)c(F)c2)C1 (stereo not given)
  -3.6%, 3, -2%, 6%
78: O=C(CNc1ccc(Cl)cc1)NNC(=S)NCc1ccccc1
  -0.1%, 4, 10%, 7%
79: O=C(NC1CCCCC1)c1cc(-c2ccc(O)cc2)on1
  -7.3%, x, -73%, -25%
80: CC1CCCCC1N=C1NC(C)(C)CS1 (stereo not given)
  2.6%, 0, 4%, -18%
81: CCN(CC)CCN1C(=O)C(=O)/C(=C(/O)c2ccc(OC)cc2)C1c1cccs1 (stereo not given)
  x, 2, -20%, x
